# Screens from PubChem BioAssay.
# Rango complex inh = qHTS Assay for Inhibitors of Rango (Ran-regulated importin-beta cargo) - Importin beta complex formation. Rango CFP/YFP FRET sensor + importin beta, 45 min. Potency, µM (highest dose often 92.2 µM), for inactives: top-dose inhibition of complex formation. AID 540263, 2011. 0.031% of 340,000 active; active = rising FRET ratio curve, often small or poorly fitted; inconclusive = mostly compound fluorescence or quenching in the first reads; inactive = flat curves in all reads;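 further: potency means the concentration at half of the fitted maximal effect; 0% = DMSO wells and 100% = buffer wells lacking importin beta; nearly all actives have a fitted effect of over 15% in size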
# Target sequence (Q14974 whole entry, looked up): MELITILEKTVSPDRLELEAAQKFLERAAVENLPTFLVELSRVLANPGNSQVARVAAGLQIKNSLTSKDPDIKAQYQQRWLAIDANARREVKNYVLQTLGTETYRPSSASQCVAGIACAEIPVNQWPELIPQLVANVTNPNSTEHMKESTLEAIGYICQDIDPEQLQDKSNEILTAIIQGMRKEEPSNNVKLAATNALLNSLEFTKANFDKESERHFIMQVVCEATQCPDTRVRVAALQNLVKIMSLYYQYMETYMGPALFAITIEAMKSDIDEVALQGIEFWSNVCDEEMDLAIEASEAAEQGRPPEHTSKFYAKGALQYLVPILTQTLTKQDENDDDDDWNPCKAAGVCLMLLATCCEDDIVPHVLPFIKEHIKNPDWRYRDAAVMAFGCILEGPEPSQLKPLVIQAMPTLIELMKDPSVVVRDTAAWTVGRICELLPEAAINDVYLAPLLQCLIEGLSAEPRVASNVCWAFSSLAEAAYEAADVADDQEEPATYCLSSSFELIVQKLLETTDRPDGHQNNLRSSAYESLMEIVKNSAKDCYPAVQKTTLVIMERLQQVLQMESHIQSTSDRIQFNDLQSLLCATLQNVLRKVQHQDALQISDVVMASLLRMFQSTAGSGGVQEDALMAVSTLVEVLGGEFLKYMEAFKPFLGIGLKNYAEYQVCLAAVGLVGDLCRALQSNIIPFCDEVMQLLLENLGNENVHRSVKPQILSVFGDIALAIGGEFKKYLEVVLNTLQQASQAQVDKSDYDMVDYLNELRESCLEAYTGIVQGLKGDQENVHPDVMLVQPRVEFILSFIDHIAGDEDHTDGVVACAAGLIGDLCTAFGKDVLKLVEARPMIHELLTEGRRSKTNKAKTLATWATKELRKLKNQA
#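 FRET biosensor (snurportin 1 IBB flanked by EYFP and cerulean), 50 nM, with compound 5 min, then 0.125 microM importin beta in PBS, 1 mM DTT, 0.02% Tween-20, 0.1% BSA. CFP/YFP ratio read after 45 min at room temperature; pre-read flags interference.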
# Rango release inh = qHTS Assay for Inhibitors of RanGTP induced Rango (Ran-regulated importin-beta cargo) - Importin beta complex dissociation. 0.071% of 340,000 active. Biochemical FRET Rango-importin beta, RanGTP-induced dissociation. Potency, µM (highest dose often 46.1 µM), for inactives: at the highest dose activity change, negative = inhibition; active means falling FRET ratio curve, often poorly fitted, with flat reads before Ran was added; inconclusive means other falling curves, or compound fluorescence or quenching; inactive means flat or rising ratio curve;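 further: potency means the concentration at half of the fitted maximal effect; % of control where 0% means no effect; nearly all actives have a fitted effect of over 45% in size; -100% = wells without RanGTP and RCC1; the record marks most hits as doubtful in a second field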
#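 Rango FRET biosensor (snurportin-1 IBB flanked by N-terminal EYFP and C-terminal CFP10) at 0.1 uM, with 0.25 uM importin beta in PBS, 1mM DTT, 0.02% Tween-20, 0.1% BSA. 0.6 uM Ran, 2mM GTP and 0.2 uM RCC1 were then added for 45 min at room temperature. Inhibition read as loss of FRET rise.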
# miR-21 reporter = qHTS Assay for Modulators of miRNAs and/orActivators of miR-21. 340,000 tested, under 10 active. Potency, µM (titrated, usually from 38.3 µM), for inactives: top-dose reporter change, positive = more light. HeLa miR-21 FLuc reporter, luciferase, 48 h; active = well fitted rising curve with a large enough effect; inconclusive = small, poorly fitted or top-dose-only effect; inactive = no such curve, though single readings can be large or run the other way;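 further: % of control where 0% means no effect; miR-21 action dims this reporter so a rising signal means less miR-21 action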
#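 HeLa cells stably expressing CMV-driven firefly luciferase with a downstream miR-21 binding sequence, endogenously expressing miR-21, were treated with titrations (up to about 40uM final) for 48 hours at 37 degree Celsius. Luciferase luminescence was read after lysis.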
# GLA inh pH 4.5 = qHTS Assay for Inhibitors of Human alpha-Galactosidase at pH 4.5. 230,000 tested, under 10 active. purified enzyme, 4-MU-alpha-Gal fluorescence, pH 4.5. Alpha-galactosidase A (Homo sapiens), P06280. activity change, negative = inhibition, % at 105 µM; inconclusive = small, poorly fitted or top-dose-only inhibition, or a rising curve; inactive = flat fitted curve, though single readings scatter; no compound was filed as active;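 further: 0% = full activity with enzyme and -100% = basal without enzyme; dose as in the result columns while the protocol names 77 µM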
# Numbers without * were called inactive; ? = inconclusive; / = not tested or not shown.
mol	Rango release inh	GLA inh pH 4.5	miR-21 reporter	Rango complex inh
Cc1ccccc1-c1cc(C(=O)NCc2cccc(Br)c2)nn1CC1CC(c2cccc([N+](=O)[O-])c2)=NO1 (stereo unspecified)	4%	/	/	-0.6%
O=c1cc(N2CCOCC2)[nH]c(=O)n1C1CCCCC1	2%	3	0%	4.8%
Cc1oc(-c2cc(F)cc(F)c2)nc1CN1CCSCC1	23%	-2	1%	0.8%
CC1=NN(C(=O)c2cccc(Cn3nc(C)c([N+](=O)[O-])c3C)c2)C(O)(C(F)(F)F)C1 (stereo unspecified)	3%	-4	0%	0.6%
CC(NC(=O)COC(=O)c1ccc[nH]c1=O)c1ccccc1 (stereo unspecified)	-4%	/	/	-0.2%
O=C1N/C(=N/O)S/C1=C/c1cccnc1	18%	0	-13%	-1.2%
O=C(O)Cc1ccc(NC(=S)Nc2ccc(Br)cc2Cl)cc1	30%	3	1%	0.5%
COc1ccc(C2CC(c3c(-c4ccccc4)c4cc(Cl)ccc4[nH]c3=O)=NN2S(C)(=O)=O)cc1 (stereo unspecified)	5%	3	9%	-1.0%
O=C(CSC1=NS(=O)(=O)c2ccccc2N1)N1CCCCC1	0%	/	/	-2.3%
O=C(c1[nH]ncc1-c1cccc(Br)c1)C1CO1 (stereo unspecified)	10%	0	?	-4.7%
OCc1cn(-c2ccccc2)nc1-c1ccc(-c2nn(-c3ccccc3)cc2CO)cc1	10%	-11	-1%	-1.4%
Cc1ccc(C)c(S(=O)(=O)N2CCCCC2CCNC(=O)C(=O)NCc2ccco2)c1 (stereo unspecified)	18%	/	/	5.0%
Cc1onc(-c2c(Cl)cccc2Cl)c1C(=O)NCc1cccs1	0%	5	1%	4.9%
c1ccc(OCCSc2nnnn2-c2ccccc2)cc1	-10%	0	-49%	-3.5%
O=C(c1cccc(C(F)(F)F)c1)N1CCCCCC1	4%	5	0%	2.8%
Cc1cc(C)nc(NC(=S)Nc2cccc(F)c2)c1	19%	-3	-25%	-1.4%
O=C(Oc1cccc(/C=N/Nc2nc(Nc3ccccc3)nc(N3CCOCC3)n2)c1)c1ccco1	0%	-5	-16%	?
CCc1nnc(NC(=O)CSc2nnc(CNC(=O)c3ccccc3F)n2C)s1	4%	/	-1%	-4.2%
O=C(NNC(=O)c1ccccc1OCc1ccccc1)c1ccccc1O	16%	/	20%	-0.3%
CC#CCCCC(=O)Nc1ccc(C(=O)O)cc1	-9%	-6	-2%	-1.4%

# Shown with two lines to a compound: 5 of the compounds above.
# Results follow in this order: Rango release inh	GLA inh pH 4.5	miR-21 reporter	Rango complex inh
Cc1cc(C)nc(NC(=S)Nc2cccc(F)c2)c1
 : 19%	-3	-25%	-1.4%
OCc1cn(-c2ccccc2)nc1-c1ccc(-c2nn(-c3ccccc3)cc2CO)cc1
 : 10%	-11	-1%	-1.4%
O=C(c1[nH]ncc1-c1cccc(Br)c1)C1CO1 (stereo unspecified)
 : 10%	0	?	-4.7%
O=C(c1cccc(C(F)(F)F)c1)N1CCCCCC1
 : 4%	5	0%	2.8%
O=C(CSC1=NS(=O)(=O)c2ccccc2N1)N1CCCCC1
 : 0%	/	/	-2.3%

# Remaining list, next part:
mol	Rango release inh	GLA inh pH 4.5	miR-21 reporter	Rango complex inh
Cc1ccc(NC(=O)C2CCCN2C(=O)OCc2ccccc2)c(C)c1 (stereo unspecified)	1%	/	-3%	4.3%
CS(=O)(=O)NCc1nnc(SCc2c(F)cccc2Cl)o1	-1%	4	-11%	0.1%
CCNc1nc(SCC(=O)Nc2ccc(Cl)c(Cl)c2)nc(N2CCOCC2)n1	-17%	/	12%	1.7%
O=C(Nc1ccc(Cl)c(Cl)c1)Nc1cc(C(=O)N2CCOCC2)ccc1N1CCCCC1	?	/	/	?
COC(=O)[C@]1(Cc2ccccc2)N[C@H](CN(C)C(=O)c2ccc(C(C)(C)C)cc2)[C@@H]2C(=O)N(Cc3ccccc3)C(=O)[C@@H]21	-8%	/	/	6.3%
COCCNC(=O)C1CC(c2ccccc2C(F)(F)F)=NO1 (stereo unspecified)	0%	/	/	1.9%
Cc1nc(SCc2cccnc2)[nH]c(=O)c1C	-2%	/	-4%	0.1%
COCCCn1c(=O)c2sccc2n(Cc2cc(C(=O)OC)ccc2OC)c1=O	2%	/	-6%	-0.2%
O=C(Cc1ccccc1)NNC1CC(=O)N(c2ccc(Cl)cc2)C1=O (stereo unspecified)	8%	9	-4%	-1.2%
CCn1nc(C)c(NC(=O)CC23CC4CC(CC(C4)C2)C3)c1C	-7%	9	-1%	0.3%
CCSc1ccc2nnc(-c3cccc(F)c3)n2n1	1%	-3	-17%	-5.7%
Cc1ccc2nc(NCCCN3CCOCC3)c(C=NCCCN3CCOCC3)c(=O)n2c1	?	5	-21%	?
O=C1N(CN2CCN(c3cccc(Cl)c3)CC2)c2ccccc2C12OCCCO2	0%	-6	2%	-1.3%
COC(=O)c1[nH]c2cccc(OC)c2c1NC(=O)CN(C)CC1OCCO1	-1%	-4	-4%	4.5%
COc1ccc(NS(=O)(=O)c2cc(S(C)(=O)=O)ccc2C)cc1	-1%	8	0%	-2.9%
COc1ccc(C(C)(C)C)cc1NC(=O)CCCn1c(=O)oc2ccccc21	20%	-5	-3%	3.3%
COc1ccc(CN2CCN(C(=O)c3ccco3)CC2)cc1	-9%	5	-1%	1.1%
Cc1cc(=O)c(C(=O)O)cn1Nc1ccc(F)cc1	-26%	6	0%	-1.4%
O=C1c2ccccc2CCc2ccccc21	2%	/	/	-2.3%
Cc1onc(-c2c(Cl)cccc2Cl)c1C(=O)Nn1cnnc1	-19%	-4	1%	0.1%

mol	Rango release inh	GLA inh pH 4.5	miR-21 reporter	Rango complex inh
CO/N=C/C(C#N)=C/c1cc(C(=O)c2ccc(F)cc2)cn1C	-8%	17	-5%	-2.3%
CCN(CC)C(=O)c1nc[nH]c1C(=O)N1CCN(c2ccccc2)CC1	13%	/	/	-0.5%
Cc1ccc(C)c(NC(=S)N2CCCCC2CO)c1 (stereo unspecified)	-6%	3	-9%	0.5%
N#Cc1cccc(Cn2nnc(-c3ccccc3)n2)c1	2%	-3	-26%	0.1%
COc1ccc(C(=O)Nc2nnc(CCc3ccccc3)s2)c(OC)c1	-2%	/	-18%	1.3%
O=C(NCc1ccccc1)C1CCN(S(=O)(=O)c2ccc(N3CCCC3=O)cc2)CC1	5%	/	1%	0.8%
Cc1ccc(/C=N/NC(=O)c2cc(-c3ccncc3)nc3ccccc23)o1	-12%	/	11%	4.6%
COc1ccc(C(=O)NCc2ccc3c(c2)CCO3)cc1	-12%	-14	-22%	-0.8%
CCOC(=O)N1CCN(C(=O)CN2C(=O)COc3ccc(C)cc32)CC1	1%	1	-4%	1.4%
COc1ccc(C(=O)OCC(=O)NC2CCCC2)c(OC)c1OC	0%	/	-3%	-1.0%
CN=C(C)C1=C(O)C(C(=O)OC)C(C)(C)CC1=O (stereo unspecified)	10%	-2	-5%	-3.6%
O=C(NCc1cccs1)c1cc(S(=O)(=O)N2CCCCC2)ccc1Cl	0%	-15	-15%	3.1%
Cc1ccc(C(=O)Nc2cccnc2Oc2ccc(Cl)cc2)cc1	-7%	-12	-10%	-3.0%
CCCC(=NCC(=O)O)C1=C(O)C(C(=O)OC)C(C)(C)CC1=O (stereo unspecified)	6%	-2	-3%	2.2%
CCOc1ccc(NC(=O)CSc2nnc(Cn3cnc([N+](=O)[O-])n3)n2C)cc1	-6%	5	1%	-1.2%
COc1ccccc1/C=N/OC(=O)c1ccc(C)cc1	8%	-1	-2%	3.6%
Cc1cc(-c2ccc(C)c(S(=O)(=O)NCC3CCN(Cc4cccc(F)c4)CC3)c2)on1	5%	/	26%	-0.4%
CCC(C)(C)NC(=O)c1cccc(NC(=O)C(C)C)c1	15%	2	-3%	-3.0%
O=C(CN1CCN(c2ccccc2)CC1)c1c[nH]c2ccccc12	-6%	/	-6%	0.9%
CCn1nnnc1SCC(=O)Nc1nc(-c2cccs2)cs1	0%	6	-16%	2.6%

# Pulled by structure from above:
mol	Rango release inh	GLA inh pH 4.5	miR-21 reporter	Rango complex inh
N#Cc1cccc(Cn2nnc(-c3ccccc3)n2)c1	2%	-3	-26%	0.1%
CCn1nnnc1SCC(=O)Nc1nc(-c2cccs2)cs1	0%	6	-16%	2.6%
O=C(NCc1ccccc1)C1CCN(S(=O)(=O)c2ccc(N3CCCC3=O)cc2)CC1	5%	/	1%	0.8%
Cc1ccc(/C=N/NC(=O)c2cc(-c3ccncc3)nc3ccccc23)o1	-12%	/	11%	4.6%
COc1ccc(C(=O)NCc2ccc3c(c2)CCO3)cc1	-12%	-14	-22%	-0.8%

# Returning to the listing, repeating the two entries before the break.
mol	Rango release inh	GLA inh pH 4.5	miR-21 reporter	Rango complex inh
O=C(CN1CCN(c2ccccc2)CC1)c1c[nH]c2ccccc12	-6%	/	-6%	0.9%
CCn1nnnc1SCC(=O)Nc1nc(-c2cccs2)cs1	0%	6	-16%	2.6%
CC(C)(C)C(=O)OCc1cn(-c2ccc(Cl)cc2)nn1	-10%	-5	-34%	5.4%
CC(C)n1nc(C(=O)OCC(=O)N(C)C2CCS(=O)(=O)C2)c2ccccc2c1=O (stereo unspecified)	-14%	6	-5%	1.1%
COc1ccccc1/C=C/C(=O)OCC(=O)NCc1ccco1	-15%	7	-6%	3.8%
c1ccc(Oc2ccccn2)cc1	0%	/	/	4.7%
CC1Oc2ccccc2N(CC(=O)N2CCCCCC2)C1=O (stereo unspecified)	-4%	/	-2%	?
COC(CN(C)S(=O)(=O)c1cc2c3c(c1)CCC(=O)N3CCC2)OC	14%	/	-1%	-0.9%
CC1C=CCC2C(=O)N(c3cc(Cl)ccc3O)C(=O)C12 (stereo unspecified)	-18%	4	-1%	5.6%
N/C(=N\OC(=O)c1cccc2ccccc12)c1cccnc1	-11%	-3	-41%	4.7%
CCOC(=O)N1CCN(C(=O)c2ccc([N+](=O)[O-])cc2Cl)CC1	8%	/	0%	-3.2%
CC(CCc1ccccc1)NC(=O)CN1CCN(c2ccc(O)cc2)CC1 (stereo unspecified)	1%	1	-13%	-1.6%
O=C(Cc1c(F)cccc1Cl)Nc1ccc(S(=O)(=O)N2CCOCC2)cc1	-16%	/	-14%	-3.9%
Cc1cc(NC(=O)NC2(C(F)(F)F)Oc3ccc(Cl)cc3O2)no1 (stereo unspecified)	0%	-3	-10%	3.7%
O=C(Nc1cnc2ccccn2c1=O)c1ccc(Cl)cc1	4%	-3	-44%	1.2%
NC(Cc1c[nH]c2ccccc12)C(=O)NCc1ccco1 (stereo unspecified)	1%	10	-3%	-1.8%

# These rows are one share of the data; the hit share may differ from the screen's.
